TRPML1 blocker: blocks the human TRPML1 channel; Q9GZU1; TRPML1-inducible cells, Ca2+ dye fluorescence, FDSS; stronger effect = lower value; inhibition of EC80 agonist-evoked calcium signal; activity change, negative = inhibition, % (test concentration not listed); 390,000 tested, 0.02% active; AID 624415; in the data active means activity change below about -50%; inconclusive means about -30% to -50%; inactive means above about -30%;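 note: stimulus is agonist 54-4 at its EC80 concentration; % is set by controls: 0 for no effect and ±100 for the full control effect; compound concentration not given in the record; the text of the record puts the active cut at -80%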
Target sequence (Q9GZU1 whole entry, looked up): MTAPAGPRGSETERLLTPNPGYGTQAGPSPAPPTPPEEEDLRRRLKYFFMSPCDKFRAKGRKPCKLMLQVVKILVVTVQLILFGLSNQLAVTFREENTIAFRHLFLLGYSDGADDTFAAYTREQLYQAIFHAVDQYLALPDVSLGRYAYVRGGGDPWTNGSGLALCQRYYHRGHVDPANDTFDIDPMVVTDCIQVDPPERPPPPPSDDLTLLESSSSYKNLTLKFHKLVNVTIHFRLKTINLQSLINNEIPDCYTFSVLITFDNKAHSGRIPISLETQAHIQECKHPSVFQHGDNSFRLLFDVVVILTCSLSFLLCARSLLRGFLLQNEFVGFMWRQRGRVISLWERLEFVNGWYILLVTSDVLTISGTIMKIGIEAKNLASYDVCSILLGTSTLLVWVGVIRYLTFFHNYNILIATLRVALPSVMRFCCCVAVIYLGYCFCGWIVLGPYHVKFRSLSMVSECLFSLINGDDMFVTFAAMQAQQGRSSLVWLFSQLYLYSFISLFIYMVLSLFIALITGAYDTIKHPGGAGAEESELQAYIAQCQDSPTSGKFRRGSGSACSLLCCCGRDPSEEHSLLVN
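TRPML1-DL cells, Tet-induced overnight (~16 h, 37 °C) at 1,500 cells/well, were loaded with Ca8 no-wash dye plus quencher for 45-90 min at room temperature. Compounds were pinned during FDSS kinetic reading; agonist 54-4 at EC80 (4 uM final) then added.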
TRPML1 agonist: activates the human TRPML1 channel | Q9GZU1 | TRPML1-expressing cells, Ca2+ dye fluorescence, FDSS; host cell line not named in the record; reference of the full effect not given here | activation, % (test concentration not listed) | 410,000 tested, 0.12% active | AID 624414; in the data active = activation above about 50%; inconclusive = about 30% to 50%; inactive = below about 30%; note: 0% is about no effect; the text of the record puts the active cut at 80%
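Cells: TRPML1-DL, 1X Tet inducer, ~16 h at 37 degrees C/5% CO2. Dye: ABD Ca8 no-wash + quencher, 45-90 min RT. Read: 10 s baseline, compound add, 110 s agonist phase; 54-4 EC80 (4uM final), 110 s antagonist phase.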
ClpP mod: qHTS Assay for Activators of ClpP; purified B. subtilis ClpP, FRET peptide cleavage, 20 min; AID 651965, 2013; 340,000 tested, 1.9% active; Potency, µM (top dose mostly 57.5 µM), without a hit: at the highest dose activity change, negative = active; ATP-dependent Clp protease proteolytic subunit (Bacillus subtilis (strain 168)), P80244; active = well fitted falling curve with a large enough effect; inconclusive = small, poorly fitted or top-dose-only effect; inactive = no such curve, though single readings can be large or run the other way; note: potency is the fitted concentration of half-maximal effect; the source files actives as falling curves though it sought activators and does not explain the sign; nearly all actives have a fitted effect of over 65% in size; many hits overshoot -100%
Target sequence (P80244 whole entry, looked up): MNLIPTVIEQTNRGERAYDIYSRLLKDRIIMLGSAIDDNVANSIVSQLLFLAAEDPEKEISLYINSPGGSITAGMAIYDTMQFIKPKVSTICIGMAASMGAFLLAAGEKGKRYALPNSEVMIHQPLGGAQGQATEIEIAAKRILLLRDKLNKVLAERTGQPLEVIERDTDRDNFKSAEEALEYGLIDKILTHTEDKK
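ClpP 10 microg/mL final, pH 8 Tris/KCl buffer with BSA, glycerol, Tween-20; compound pinned in; FRET-FV substrate; RT 20 min; Ex320/Em430; ΔFRET vs ADEP 5.8 microM, DMSO, no enzyme.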
gsp ag: agonists of gsp mutant (McCune-Albright syndrome); gsp mutant cells, cAMP HTRF, 30 min; control for the full effect not named in the record; Potency, µM (highest dose often 76.9 µM), for the others: top-dose activation (cAMP increase), actives largely listed as activators; 340,000 tested, 0.13% active; AID 624287; active = well fitted activation curve with a large enough effect; inconclusive = small, poorly fitted or top-dose-only effect, or another doubt; inactive = no such curve, though single readings can be large or run the other way; cell line not stated here;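 note: phosphodiesterase inhibitor Ro 20-1724 added with compounds to block cAMP breakdown; potency is the fitted concentration of half-maximal effect; nearly all actives have a fitted effect of over 60% in size; about a fifth of the inactives were tested at one dose only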
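Cells stably selected in G418 were plated at 2000/well, grown 16-24 hr, then given compounds in DMSO with the PDE inhibitor […] (300 uM solution added) for 30 min at 37C; cAMP was read by HTRF.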
gsp antag: antagonizes gsp, the McCune-Albright syndrome mutation; gsp-mutant cells, cAMP HTRF, 30 min; control for the full effect not named in the record; Potency, µM (series often up to 76.9 µM), for inactives: at the highest dose activity change, negative = inhibition, most hits filed as inhibitors; 340,000 tested, 0.4% active; AID 624288; active = falling curve of any shape with a large fitted effect; inconclusive = falling curve, mostly with a smaller effect; inactive = flat or rising curve; cell line not stated here;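 note: intracellular cAMP measured with PDE inhibitor Ro 20-1724 present during compound exposure; potency is the fitted concentration of half-maximal effect; % is set by controls: 0 for no effect and ±100 for the full control effect; nearly all actives have a fitted effect of over 65% in size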
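Measurement of cellular cAMP by homogeneous time-resolved fluorescence following a 30 min compound exposure at 37C. The PDE inhibitor […] was present throughout; the assay buffer was DPBS with 0.05% BSA and 0.005% Tween 20.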
Menin MLL FP FL: menin-MLL binding inhibition, fluorescein peptide; Fluorescence polarization, fluorescein-MLL peptide displacement from menin; FP activity change, % at 61.4 µM; 290,000 tested, under 10 active; AID 1766; inconclusive = falling polarisation curve, or a change in total fluorescence; inactive = total fluorescence flat and polarisation flat or rising; no compound was filed as active; the % refers to the polarisation; negative = inhibition;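 note: % of control where 0% means no effect; inhibitors lower the polarisation; unlabelled MLL peptide was the positive control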
The depositor's hits bear a star; & = joins results of further samples; [ ] = dose if it differs, or a comment.

The first 2 entries, to show the layout:
What do the screens show for `CCOC(=O)c1c(C)[nH]c(C)c1S(=O)(=O)N1CCCC(C(=O)N2CCN(c3cccc(C)c3C)CC2)C1` (stereo unspecified)?
TRPML1 blocker: 7; TRPML1 agonist: 1.2; ClpP mod: -0.8%

How did O=C1/C(=C\c2ccsc2)NC(=S)N1c1ccccc1 do in these assays?
TRPML1 blocker: -6; TRPML1 agonist: 0.1; gsp ag: 0%; gsp antag: -10%; Menin MLL FP FL: -0.3

The whole of this part (from the top)
What do the screens show for `CCOC(=O)c1c(C)[nH]c(C)c1S(=O)(=O)N1CCCC(C(=O)N2CCN(c3cccc(C)c3C)CC2)C1` (stereo unspecified)?
TRPML1 blocker: 7; TRPML1 agonist: 1.2; ClpP mod: -0.8%

How did O=C1/C(=C\c2ccsc2)NC(=S)N1c1ccccc1 do in these assays?
TRPML1 blocker: -6; TRPML1 agonist: 0.1; gsp ag: 0%; gsp antag: -10%; Menin MLL FP FL: -0.3

How did O=C(OCC(=O)N1CCc2ccccc2C1)c1ccc(F)cc1Cl do in these assays?
TRPML1 blocker: 23; TRPML1 agonist: 0.8; ClpP mod: -1.9%; gsp ag: 0%[15.4 µM]; gsp antag: -5%

What do the screens show for `Cc1noc(C)c1COc1ccc(C(=O)N2CCN(S(=O)(=O)c3cccc(F)c3)CC2)cc1`?
TRPML1 blocker: 0; TRPML1 agonist: 0.4; gsp ag: inconclusive; gsp antag: -12%

What do the screens show for `O=C(CN1CCc2ccccc2C1)Nc1cccc(S(=O)(=O)N2CCCC2)c1`?
TRPML1 blocker: 10; TRPML1 agonist: 0.0; gsp ag: 8%[15.4 µM]; gsp antag: -2%; Menin MLL FP FL: 2.7

What do the screens show for `CCCOc1ccc(C(=O)NC(=S)NNC(=O)c2c(-c3ccccc3)noc2C)cc1`?
TRPML1 blocker: 39; TRPML1 agonist: 65*; ClpP mod: 1.8%; gsp ag: 15%; gsp antag: 1%; Menin MLL FP FL: 2.6

Results for CCC1=C(c2ccc(C)cc2)S(=O)(=O)N=C1N1CCC(C(=O)NCCc2cccc(OC)c2)CC1 ?
TRPML1 blocker: -6; TRPML1 agonist: -0.1; ClpP mod: -1.2%

How did CC(=O)SC1CC2=CC(=O)CCC2(C)C2CCC3(C)C(CCC34CCC(=O)O4)C12 (stereo unspecified) do in these assays?
TRPML1 blocker: 6; TRPML1 agonist: -0.2; gsp ag: -37%[inhibitor]; gsp antag: -23%; Menin MLL FP FL: -6.2

How did Cc1cc(O)c(C(C)C)cc1NC(=O)Nc1cccc2ccccc12 do in these assays?
TRPML1 blocker: -3; TRPML1 agonist: -0.2; gsp ag: -4%[15.4 µM]; gsp antag: inconclusive; Menin MLL FP FL: -0.2

Results for COc1cc(C(=S)N2CCCC2)cc(Cl)c1O ?
TRPML1 blocker: 13; TRPML1 agonist: -0.2; ClpP mod: -0.8%; gsp ag: 5%; gsp antag: 7%; Menin MLL FP FL: inconclusive

Results for CN1CCN(S(=O)(=O)c2ccc(NC(=O)Cc3ccc([N+](=O)[O-])cc3)cc2)CC1 ?
TRPML1 blocker: -15; TRPML1 agonist: 3.4; ClpP mod: 1.8%; gsp ag: 3%; gsp antag: -1%

What do the screens show for `O=C(Nc1nc(-c2ccc(F)cc2)cs1)c1ccc(N2C(=O)CCC2=O)cc1`?
TRPML1 blocker: 1; TRPML1 agonist: -0.4; ClpP mod: -0.7%; gsp ag: -2%; gsp antag: 22%; Menin MLL FP FL: -1.4

How did O=C(c1ccc2[nH]c(=O)c(=O)[nH]c2c1)N1CCN(c2ccccc2)CC1 do in these assays?
TRPML1 blocker: 6; TRPML1 agonist: -0.3; ClpP mod: inconclusive; gsp ag: 7%; gsp antag: 9%

What do the screens show for `CCCCCCCCN1[C@@H](CC(=O)O)c2cc(C(F)(F)F)ccc2S1(=O)=O`?
TRPML1 blocker: -10; TRPML1 agonist: 0.6&-0.9; ClpP mod: 0.7%&1.0%; gsp antag: -16%

How did CCOC(=O)C(NCc1ccccn1)(NC(=O)c1cccnc1)C(F)(F)F (stereo unspecified) do in these assays?
TRPML1 blocker: 9; TRPML1 agonist: -1.0; ClpP mod: 1.3%; gsp ag: -37%[inhibitor]; gsp antag: 6%; Menin MLL FP FL: 2.8

Results for COc1ccc(N/C=C(\C(C)=O)c2ccc(OC)c(OC)c2)cc1OC ?
TRPML1 blocker: 17; TRPML1 agonist: 0.3; gsp ag: 16%[15.4 µM]; gsp antag: 13%; Menin MLL FP FL: -7.1

What do the screens show for `O=C1C2CCCCN2C(=O)N1CCN1CCN(c2ccc(F)cc2)CC1` (stereo unspecified)?
TRPML1 blocker: -4; TRPML1 agonist: 0.1; gsp ag: -30%[inhibitor]; gsp antag: -3%

What do the screens show for `COc1ccc(CCNC(=O)CN2C(=O)COc3ccc(C)cc32)cc1OC`?
TRPML1 blocker: -7; TRPML1 agonist: -0.3; ClpP mod: -1.7%

Results for O=C(Nc1ccc(C(=O)N2CCOCC2)cc1)Nc1cccc2ccccc12 ?
TRPML1 blocker: 0; TRPML1 agonist: -0.2; gsp ag: 44%; gsp antag: -6%; Menin MLL FP FL: 4.7

How did O=C(COC(=O)/C=C/c1ccc(Cl)cc1)Nc1ccc2[nH]c(=O)[nH]c2c1 do in these assays?
TRPML1 blocker: -21; TRPML1 agonist: -0.4; ClpP mod: -2.3%; gsp ag: inconclusive; gsp antag: -6%

What do the screens show for `CCN(CC(=O)N1CCCCCC1)S(=O)(=O)c1ccc(Cl)cc1`?
TRPML1 blocker: -6; TRPML1 agonist: 0.0; ClpP mod: 0.7%; gsp ag: -27%; gsp antag: 2%; Menin MLL FP FL: -0.2

How did CCC(C)Sc1cc(C)c(C#N)c2nc3ccccc3n12 (stereo unspecified) do in these assays?
TRPML1 blocker: -3; TRPML1 agonist: 1.4; ClpP mod: 3.0%; gsp ag: -12%; gsp antag: 6%; Menin MLL FP FL: 5.1

What do the screens show for `O=C(Cc1ccccc1)N(Cc1cccnc1)c1nc2ccc(F)cc2s1`?
TRPML1 blocker: 48; TRPML1 agonist: 1.9; ClpP mod: 0.2%

What do the screens show for `O=C(/C=C/c1ccco1)NC(=S)Nc1ccccc1O`?
TRPML1 blocker: 0; TRPML1 agonist: 1.8; gsp ag: -2%[15.4 µM]; gsp antag: -23%; Menin MLL FP FL: inconclusive

What do the screens show for `c1ccc2c(c1)[nH]c1c(NCC3CCCO3)ncnc12` (stereo unspecified)?
TRPML1 blocker: 6; TRPML1 agonist: -0.6; ClpP mod: 28µM*; gsp ag: -1%; gsp antag: 35µM*; Menin MLL FP FL: 4.5

How did O=S(=O)(NCc1ccccc1F)NCc1ccccc1F do in these assays?
TRPML1 blocker: -7; TRPML1 agonist: -0.3; gsp ag: -10%; gsp antag: 7%; Menin MLL FP FL: 2.6

Results for O=C(N/N=C/c1ccc2c(c1)OCO2)c1ccc2c(c1)OCCO2 ?
TRPML1 blocker: -4; TRPML1 agonist: -0.6; ClpP mod: -8.7%; gsp ag: -29%; gsp antag: 7%; Menin MLL FP FL: 4.8

What do the screens show for `CC(C)(C)c1nc2ccccc2c(=O)n1N1C(=O)c2ccccc2C1=O`?
TRPML1 blocker: -1; TRPML1 agonist: 1.2; ClpP mod: -0.1%; gsp ag: -43%[inhibitor]; gsp antag: -22%; Menin MLL FP FL: 11

What do the screens show for `Cc1cnc(C(=O)OCC(=O)Nc2ncc(Cl)cc2Cl)cn1`?
TRPML1 blocker: -5; TRPML1 agonist: -0.6; ClpP mod: -2.1%; gsp ag: -2%; gsp antag: 10%

What do the screens show for `CN(Cc1ccccc1)C(=O)COC(=O)c1cc(=O)c2ccccc2o1`?
TRPML1 blocker: -14; TRPML1 agonist: 0.3; ClpP mod: 1.4%; gsp ag: -12%[15.4 µM]; gsp antag: -9%

How did CSc1ccc(C(=S)N2CCCCCC2)cc1 do in these assays?
TRPML1 blocker: 1; TRPML1 agonist: 2.2; ClpP mod: -3.4%; gsp ag: 0%; gsp antag: 4%; Menin MLL FP FL: -5.4

What do the screens show for `CCN(CC)S(=O)(=O)c1ccc(C)c(NC(=O)CSc2ncc(C(F)(F)F)cc2Cl)c1`?
TRPML1 blocker: 7; TRPML1 agonist: 3.1; ClpP mod: 1.9%; gsp ag: 5%; gsp antag: 9%; Menin MLL FP FL: 6.2

Results for c1ccc(Cn2nnnc2C(c2ccccn2)N2CCN(c3ccccc3)CC2)cc1 (stereo unspecified) ?
TRPML1 blocker: -14; TRPML1 agonist: 0.1; ClpP mod: -1.2%; gsp ag: -54%[inhibitor]; gsp antag: -6%; Menin MLL FP FL: 3.5

Results for Cc1ccc2occ(C(=O)c3ccco3)c(=O)c2c1 ?
TRPML1 blocker: 2; TRPML1 agonist: 1.2; ClpP mod: 1.4%; gsp ag: 25%; gsp antag: -4%; Menin MLL FP FL: -2.0

What do the screens show for `Cc1cc(C)c(S(=O)(=O)N2CCN(C(=O)C3CC3)CC2)c(C)c1`?
TRPML1 blocker: 9; TRPML1 agonist: 0.8; gsp ag: -18%[15.4 µM]; gsp antag: -2%

What do the screens show for `COc1ccccc1CCN=C(N)NS(=O)(=O)c1ccccc1F`?
TRPML1 blocker: -6; TRPML1 agonist: 1.0; ClpP mod: -3.1%; gsp ag: -48%[inhibitor]; gsp antag: -3%

How did Cn1c(C(=O)N2CCOCC2)cc2c(=O)n3ccccc3nc21 do in these assays?
TRPML1 blocker: -10; TRPML1 agonist: -0.7; ClpP mod: 3.4%; gsp ag: inconclusive; gsp antag: 21%

How did CC(=O)NCCC(=O)Nc1cc(S(=O)(=O)N2CCOCC2)ccc1Oc1ccccc1 do in these assays?
TRPML1 blocker: 18; TRPML1 agonist: -0.3; ClpP mod: 1.7%; gsp ag: 34%; gsp antag: 7%; Menin MLL FP FL: -12

What do the screens show for `CCOC(=O)c1ccc2c(c1)N(Cc1cccc([N+](=O)[O-])c1)C(=O)c1ccccc1S2`?
TRPML1 blocker: -4; TRPML1 agonist: 4.9; ClpP mod: 0.9%

What do the screens show for `Cc1nc(NC(=O)CSc2nnc(C3CC3)n2C)sc1C`?
TRPML1 blocker: 1; TRPML1 agonist: -0.4; gsp ag: 6%[15.4 µM]; gsp antag: -18%; Menin MLL FP FL: -2.3

Results for COc1ccc2c(CC(=O)Nc3ccc(N4CCOCC4)cc3)coc2c1 ?
TRPML1 blocker: 54; TRPML1 agonist: 2.5; ClpP mod: 3.2%; gsp ag: 1%; gsp antag: -9%; Menin MLL FP FL: 2.0

How did NS(=O)(=O)c1cccc(NC(=O)c2cccc3c(Br)cccc23)c1 do in these assays?
TRPML1 blocker: 15; TRPML1 agonist: -0.3; ClpP mod: 3.0%; gsp ag: inconclusive; gsp antag: -2%; Menin MLL FP FL: -4.7
